Vif A3G: HIV-1 Vif–A3G interaction blockers – biochemical, TR-FRET, GST-Vif 1-94, biotin-A3G peptide, dose response retest, primary screen (AID 1117319); TR-FRET GST-Vif / biotin-A3G peptide binding; higher % means a stronger effect; test concentration not given here; strong numbers were not always called active; inhibition, %; hits with a dose series show IC50 in µM; hit rate 0.57% among 260,000;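 active = above the screen mean plus three standard deviations and confirmed in dose response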;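 note: Vif residues 1-94 fused to GST binding biotinylated APOBEC3G peptide 110-148; 0% = full assay without inhibitor and 100% = GST in place of GST-Vif; retest series ran down from 100 µM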
MLL AF4-AF9 inh: blocks AF4 peptide binding to human AF9 | inhibition, % at 10 µM | AlphaScreen, biotin-AF4 peptide binding to FLAG-AF9 | hit rate 0.47% among 350,000 | P42568;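 active = every replicate reaching a set inhibition limit, whatever the replicate mean, cut at about 25% in these data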;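 note: 0% = plate neutral control median and 100% = total signal loss; the record names both 10 and 1 µM as test concentration; the first replicate is given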
Target sequence (P42568 whole entry, looked up): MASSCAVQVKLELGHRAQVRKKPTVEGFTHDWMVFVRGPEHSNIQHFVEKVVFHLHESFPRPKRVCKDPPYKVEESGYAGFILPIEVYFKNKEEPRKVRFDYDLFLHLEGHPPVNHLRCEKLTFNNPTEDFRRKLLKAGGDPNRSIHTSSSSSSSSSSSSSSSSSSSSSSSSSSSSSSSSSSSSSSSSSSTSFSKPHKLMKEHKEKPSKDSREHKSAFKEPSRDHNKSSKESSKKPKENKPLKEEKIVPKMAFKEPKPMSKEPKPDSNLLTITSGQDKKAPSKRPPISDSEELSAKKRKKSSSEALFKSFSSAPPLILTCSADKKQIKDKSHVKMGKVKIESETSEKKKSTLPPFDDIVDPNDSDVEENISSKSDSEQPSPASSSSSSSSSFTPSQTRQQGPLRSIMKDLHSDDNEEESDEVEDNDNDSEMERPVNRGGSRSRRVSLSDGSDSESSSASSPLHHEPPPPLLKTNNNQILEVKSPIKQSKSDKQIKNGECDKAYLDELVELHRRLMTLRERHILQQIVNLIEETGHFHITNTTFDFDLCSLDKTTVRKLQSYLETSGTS
Active calls of the source: *; & = joins results of further samples. The list is partial, so the mix of outcomes need not match the whole.

SMILES	Vif A3G	MLL AF4-AF9 inh
COc1ccc(-c2ccc3c(c2)[C@@H]2C[C@H](N(C)S(=O)(=O)c4ccccc4)[C@H]([C@H](C)O)C(=O)N2CC3)cc1	-2%	-3.5
CC(C)c1cc(CN2C(C)COCC2C)cc(C(C)C)c1O (centres undefined)	-8%	6.1
Cc1cc(Br)ccc1NC(=O)CN(C)C(=O)C1CCN(c2ncnc3sc(C)c(C)c23)CC1	11%	8.7
Cc1ccc2c(C)c(C(=O)Nc3cccnc3)oc2c1C	-1%	-2.6
O=C(COC(=O)c1cccnc1SC(F)F)NC1CC1	1%	0.1
Cc1cc(C)c2c(=O)n3c(nc2c1)C(C)NC(=O)c1cccnc1-3 (centres undefined)	1%	0.0
CCN1C(=O)/C(=C/c2cn(-c3ccccc3)nc2-c2cccnc2)SC1=S	-3%	0.0
CCNC(=O)c1cccc(NC(=O)CN2C(=O)NC3(CCCCC3)C2=O)c1	0%	-2.6
CC(C)S(=O)(=O)C1=NSC2=NC(=O)/C(=C\c3ccc(-c4cccc(C(=O)O)c4)o3)C(=N)N21	-22%	-2.1
COC(=O)[C@@]1(Cc2ccccc2)[C@H]2C(=O)N(Cc3ccccc3)C(=O)[C@H]2[C@H]2CN(C)C(=NCc3ccccc3)N21	6%	-5.0
CC(=O)c1ccc2ccccc2c1OC(=O)c1ccncc1	2%	12
Cn1c(=O)c2[nH]c(SCCN)nc2n(C)c1=S	-1%	-2.2
COc1cccc(CN(C)C(=O)c2ccc(S(=O)(=O)Nc3ccccc3F)cc2)c1OC	3%	0.3
CC(Sc1nnc(N)s1)C(=O)NNC(=O)c1cccc(Cl)c1 (centres undefined)	5%	-2.8
Cc1ccc(NC(=O)CSc2nnc(NC3CC3)s2)cc1S(=O)(=O)N1CCOCC1	-7%	-0.7
COc1cc(C=NOC(=O)Nc2ccccc2)cc(OC)c1OC	7%	-0.3
COc1ccc2c(c1)CCC1(C)CC(=O)C(Br)=C21 (centres undefined)	-256%	0.2
O=C1C=C(Nc2cccnc2)c2ccccc2C1=O	-2%	-1.0
N/C(=N\OS(=O)(=O)c1ccc2ccccc2c1)c1ccccn1	7%	0.8
CC(C)NC(=O)N(C)C[C@@H]1OCc2ccccc2-c2c(n(C)c3ccccc23)C(=O)N([C@@H](C)CO)C[C@@H]1C	0%	-2.1
CCOC(=O)c1ccc(S(=O)(=O)N2CCN(C(=O)c3cc4ccccc4o3)CC2)cc1	0%	1.0
CN(C)C(CNC(=O)c1cc(Br)c(Br)s1)c1ccco1 (centres undefined)	-2%	7.9
O=C(O)c1ccc(OS(=O)(=O)c2cccc(C(F)(F)F)c2)cc1	4%	-1.9
COc1ccc(NC(=O)C[C@H]2C(=O)N(c3ccc(OC)cc3)C[C@@H]2CSC)cc1	1%	2.5
O=C(C[C@@H]1C[C@@H]2c3cc(NC(=O)C4CCOCC4)ccc3O[C@@H]2[C@H](CO)O1)NCc1ccccn1	-2%	0.1&-2.5

Sorted by the number under Vif A3G (descending): 7 of the compounds above
| SMILES | Vif A3G | MLL AF4-AF9 inh |
| --- | --- | --- |
| N/C(=N\OS(=O)(=O)c1ccc2ccccc2c1)c1ccccn1 | 7% | 0.8 |
| COC(=O)[C@@]1(Cc2ccccc2)[C@H]2C(=O)N(Cc3ccccc3)C(=O)[C@H]2[C@H]2CN(C)C(=NCc3ccccc3)N21 | 6% | -5.0 |
| CC(Sc1nnc(N)s1)C(=O)NNC(=O)c1cccc(Cl)c1 (centres undefined) | 5% | -2.8 |
| Cc1cc(C)c2c(=O)n3c(nc2c1)C(C)NC(=O)c1cccnc1-3 (centres undefined) | 1% | 0.0 |
| Cn1c(=O)c2[nH]c(SCCN)nc2n(C)c1=S | -1% | -2.2 |
| O=C(C[C@@H]1C[C@@H]2c3cc(NC(=O)C4CCOCC4)ccc3O[C@@H]2[C@H](CO)O1)NCc1ccccn1 | -2% | 0.1&-2.5 |
| CC(C)S(=O)(=O)C1=NSC2=NC(=O)/C(=C\c3ccc(-c4cccc(C(=O)O)c4)o3)C(=N)N21 | -22% | -2.1 |

(next part)
SMILES	Vif A3G	MLL AF4-AF9 inh
CC(=O)Nc1cc2c(c([N+](=O)[O-])c1C)C(C)(C)CC2(C)C	7%	2.0
CC(=O)c1cccc(OCc2cc(C(=O)N(C)Cc3nccs3)no2)c1	-3%	-1.7
CC(C)NC(=O)N(C)C[C@H]1Oc2cc(Br)ccc2S(=O)(=O)N([C@H](C)CO)C[C@H]1C	-5%	-0.4&-1.3&-1.8
Cc1noc(C)c1S(=O)(=O)Nc1ccc2c(c1)C(=O)N([C@H](C)CO)C[C@H](C)[C@@H](CN(C)C(=O)Nc1ccccc1)O2	1%	-3.0&2.2
Cc1ccc(NC(=O)Cn2sc3ccccc3c2=O)cc1	11%	-5.8
COC(=O)c1ccc(NC(=O)c2cccc(N3C(=O)CCC3=O)c2)cc1	-11%	8.8
C[C@H]1CN([C@@H](C)CO)C(=O)CCCn2cc(nn2)CO[C@@H]1CN(C)C(=O)Nc1ccccc1	3%	-1.2&-1.4
CCN(Cc1nc2ccccc2c(=O)[nH]1)C(=O)c1cccc(OCc2c(C)noc2C)c1	-1%	1.5
O=C(Nc1ccc(F)cc1F)c1ccc2c(=O)n3c(nc2c1)CCC3	-9%	-5.9
O=C(OCC(=O)N1CCC(Cc2ccccc2)CC1)c1ccc(O)cc1	3%	-2.6
COCCCn1c(C(=O)NC2CCCCC2)cc2c(=O)n3cccc(C)c3nc21	-3%	-2.5
CCOC(=O)C(C#N)(Cc1ccc2ccccc2n1)Cc1ccc2ccccc2n1	42%	0.0
Nc1nc(-c2ccccc2)nc2nonc12	-4%	2.2
O=C(NCc1ccccc1F)c1ccc(S(=O)(=O)NCc2ccco2)cc1	2%	-0.1
COc1ccc(/C=C/c2c(-c3ccc(OC)cc3)sc3cc(OC)c(OC)cc23)cc1	0%	3.8
O=C(c1ccccc1)N(c1ccccc1)c1nccc2ccccc12	2%	-0.3
O=C(NN=Cc1cccc2ccccc12)C(=O)NN=Cc1cccc2ccccc12	3%	-5.4
O=C1CC(c2ccccc2)C(c2ccccc2)=NN1 (centres undefined)	-6%	0.2
O=C(Nc1ccccc1)C(CCCCN1C(=O)c2ccccc2C1=O)N1C(=O)c2ccccc2C1=O (centres undefined)	-9%	-1.5
COc1ccc(CCNS(=O)(=O)c2ccc3c(c2)n(C)c(=O)c(=O)n3C)cc1OC	4%	5.6
CCOC(=O)C1C(=O)NC(C(=O)OCC)(C(=O)OCC)C1CC (centres undefined)	-9%	0.2
Cc1ccc(C)c(N2CCN(C(=O)CCc3nc(-c4cccc(Cl)c4)no3)CC2)c1	-2%	-0.5
Cc1ccc([C@@H]2C[C@H]3[C@@H](CN2S(=O)(=O)c2ccc(C)cc2)C(=O)C[C@@H](c2ccccc2)N3S(=O)(=O)c2ccc(C)cc2)cc1	-12%	-1.8
CC(C)CN1CC(Br)C(=O)NC1=O (centres undefined)	-1%	-0.1
O=C(Nc1ccc(Cl)cc1C(=O)c1ccccn1)c1ccccc1	-3%	2.4

Complete entries as entered above:
Cc1ccc(C)c(N2CCN(C(=O)CCc3nc(-c4cccc(Cl)c4)no3)CC2)c1 as listed: Vif A3G = -2%; MLL AF4-AF9 inh = -0.5
Cc1ccc(NC(=O)Cn2sc3ccccc3c2=O)cc1 as listed: Vif A3G = 11%; MLL AF4-AF9 inh = -5.8

Next records
SMILES	Vif A3G	MLL AF4-AF9 inh
CSC[C@H]1CN(CCc2ccccc2)C(=O)[C@@H]1CC(=O)Nc1ccccc1	1%	-1.8
C[C@@H]1CN([C@@H](C)CO)C(=O)c2cc(Br)cnc2O[C@H]1CN(C)C(=O)C1CC1	-6%	-3.6&-2.5
O=C(Nc1cccc(-n2cnnn2)c1)C1CCCN(C(=O)Cc2cccc(Cl)c2)C1 (centres undefined)	-2%	0.0
Cc1nc(NCc2ccco2)c2cn[nH]c2n1	-4%	-10
O=C(CSc1nc2ccccc2n1CCc1ccccc1)c1ccc(O)c(O)c1	2.1µM*	6.3
O=C(COc1cccc(Br)c1)N/N=C/c1ccc2c(c1)OCCO2	-7%	-2.2
CN(C)CCN=c1cc(-c2ccccc2)oc2ccc(Cl)cc12	-15%	13
Cc1ccc(C)c(NC(=O)C(OC(=O)c2cc[n+]([O-])cc2)c2ccccc2)c1 (centres undefined)	8%	-3.3
OC1CC2CCC(C1)N2CCCN1c2ccccc2Sc2ccc(Cl)cc21 (centres undefined)	6%	19
CCN(CC)C(=O)[C@H]1C[C@H](CC(=O)NC(C)(C)C)C(=O)N2CCc3c([nH]c4cc(-c5ccco5)ccc34)[C@]12C	0%	12
O=C(Nc1cc(Cl)cc2c1-c1ccc(Cl)cc1C2O)C(Cl)Cl (centres undefined)	5%	-1.1
COc1ccc(CN(C)C[C@H]2OCCCC[C@@H](C)Oc3ccc(NS(C)(=O)=O)cc3C(=O)N([C@H](C)CO)C[C@@H]2C)cc1	1%	1.1&-2.5
COc1ccc(C2OCC(C)(C)CO2)cc1OC	-4%	-8.2
Cc1ccc(CNc2ncnc3[nH]ncc23)cc1	-8%	-5.1
CC(=NC1CCCCC1)c1ccc(O)cc1O	0%	-0.5
O=C(CN1CCCCC1)Nc1ccc(S(=O)(=O)c2ccc(NC(=O)CN3CCCCC3)cc2)cc1	1%	5.7
O=C(NN=Cc1c(O)ccc2ccccc12)C1CC1	-2%	1.5
COc1ccc(CNC(=O)CCNC(=O)N2CC(=O)Nc3ccccc32)cc1	0%	-1.4
Cc1ccc(S(=O)(=O)Nc2ccc3nc(C)oc3c2)cc1	-11%	-0.4
CCN(Cc1ccccc1)S(=O)(=O)c1ccccc1Br	-2%	-1.1
N#Cc1ccccc1S(=O)(=O)N1CCN(Cc2cc3c(cc2Br)OCCO3)CC1	-1%	1.6
CC(=NNC(=S)N1CCCCC1)c1ccccn1	4%	1.3
CCN(CC)C(=O)C1=C(C)N(Cc2ccc(C(C)(C)C)cc2)C(=O)C(CC(=O)NCCCCc2ccccc2)C1 (centres undefined)	5%	-2.4
CC1CCCC(C)N1S(=O)(=O)c1ccc(NC(=O)CCN2C(=O)C3CC=CCC3C2=O)cc1 (centres undefined)	-4%	-0.4
Cc1ccc(Nc2nc(N)nc(COC(=O)c3ccc(Br)o3)n2)cc1	3%	-1.0

Following part:
SMILES	Vif A3G	MLL AF4-AF9 inh
O=C(c1cccs1)N1CCN(C(=O)c2cccs2)C1=S	-2%	4.6
CCCCCC(=O)N1C[C@@H](n2cc(C3CC3)nn2)[C@H](O)C[C@@H]1c1ccc(Cl)cc1	-8%	-9.6
Nc1ncnc2c(C3OC(CO)C(O)C3O)c[nH]c12 (centres undefined)	-7%	5.0
O=c1cn[nH]c2ccc(Br)cc12	-10%	-2.5
O=C(NNC(=O)c1ccccc1F)c1ccc(-c2ccccc2Cl)o1	-3%	0.5
COC(=O)[C@]1(Cc2ccccc2)N[C@H](CN(C)C(=O)Nc2ccc(OC)cc2)[C@@H]2C(=O)N(C)C(=O)[C@@H]21	-3%	2.4
CC(C)C[C@@H](CNCC(=O)[C@H](CC(C)C)NC(=O)c1[nH]cnc1C(=O)N[C@H](CN)CC(C)C)NC(=O)c1nc[nH]c1C(=O)N[C@@H](Cc1ccccc1)C(=O)O	-8%	2.2
O=C1C=C(C#Cc2ccc(Oc3ccccc3)cc2)C[C@@H](c2ccc(F)cc2)C1	-10%	-0.3
COc1cc(OC)cc(C(=O)NCC(=O)N2CC=C(c3ccccc3)CC2)c1	-1%	-3.0
COc1ccc2nc3cc([N+](=O)[O-])ccc3c(NNc3ccc([N+](=O)[O-])cc3)c2c1	4%	1.4
O=[N+]([O-])c1cnc(Sc2ccncn2)c([N+](=O)[O-])c1	4%	0.9
CC(=O)Nc1ccc(S(=O)(=O)O)c(OC(C)=O)c1	4%	1.5
O=C(CCCCn1cnc2c(=S)nc[nH]c21)Nc1ccc(C(=O)O)cc1	3%	-10
Cc1cccc(CN(C)C[C@H]2OCc3cnnn3CCCC(=O)N([C@@H](C)CO)C[C@@H]2C)c1	-2%	-2.9&1.7
O=C(NCc1nnnn1-c1ccc(F)cc1)c1ccc2ccccc2c1	1%	-1.6
O=C(NCC(c1ccccc1Cl)N1CCCC1)c1ccc(N2CCCC2=O)cc1 (centres undefined)	-7%	-1.1
C[C@H](CO)N1C[C@H](C)[C@@H](CN(C)Cc2ccccn2)Oc2ncc(-c3ccccc3)cc2C1=O	3%	-3.8&-18&-12
O=C(NCCN1CCOCC1)c1cc(-c2ccccc2)nc2ccccc12	-1%	-3.2
CCOC(=O)C1=C(COC(=O)COc2ccccc2C(C)C)NC(=O)NC1C (centres undefined)	-1%	-20
COCC(C)n1c(C)cc(C(=O)COc2ccc(N(C)S(=O)(=O)c3ccc(NC(C)=O)cc3)cc2)c1C (centres undefined)	2%	7.8
Cc1cc(C)cc(N2C(=O)C=CC2=O)c1	-12%	-0.8
CC(C)N1CCSC1=S	5%	-2.1
CN(C)c1ccc(C=Cc2ccnc3c(O)cccc23)cc1	8%	11
CC1=C(C(=O)N(C)C)CC(CC(=O)NC(c2ccccc2)c2ccccc2)C(=O)N1CCC1=CCCCC1 (centres undefined)	1%	-1.9
O=C1OCCN1C(=O)[C@H]1[C@H](c2ccc(F)cc2)C(c2cccc(Cl)c2)=NN1c1ccccc1	0%	-22
COc1cccc(CNC(=O)c2ccc(S(=O)(=O)N3CCOCC3)cc2)c1	-8%	1.3
CCCCCOc1ccc(C(=O)OCC(=O)Nc2cc(C)on2)cc1	-8%	-1.9
O=C(O)c1ccccc1C(=O)c1ccc2oc(=O)[nH]c2c1	14%	-1.0
Cc1ccccc1Oc1ccc2c(c1)[C@@H]1C[C@H](N(C)C(=S)Nc3ccc(F)cc3)[C@H]([C@H](C)O)C(=O)N1CC2	-2%	-0.9
CC1CN(N=Cc2ccc([N+](=O)[O-])o2)C(=N)O1 (centres undefined)	9%	-0.2

Compound activity from PubChem BioAssay.
